FGF22 binding – FGF22 (human) thermal shift binding; Q9HCT0; recombinant FGF22 thermal shift, SYPRO orange fluorescence; percent of sucrose octasulfate shift, DMSO zero; calls only at 9.99 µM; hit rate 1.5% among 340,000; AID 651658;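 active means melting point raised past a set limit in the mean and every replicate; three in four hits are not shown here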
Target sequence (Q9HCT0 whole entry, looked up): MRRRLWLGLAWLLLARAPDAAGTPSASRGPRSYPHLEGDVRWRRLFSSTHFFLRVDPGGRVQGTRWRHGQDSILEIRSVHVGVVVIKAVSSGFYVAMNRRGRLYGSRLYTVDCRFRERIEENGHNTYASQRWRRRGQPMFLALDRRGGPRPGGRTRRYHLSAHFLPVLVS
rRNA inh HTS – selective bacterial rRNA inhibition in E. coli. hit rate 1.6% among 350,000. GFP signal change (wild-type ribosome), % (test concentration not listed). AID 720706. E. coli WT GFP vs humanized-ribosome RFP mutants, fluorescence, 24 h; hits give low values; DMSO median 0, no signal -100;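 active means significant combined selectivity score with lowered wild-type GFP, culture density cut under 30%, mutant RFP and density less affected; inactive means any of these conditions unmet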; further: one replicate is shown; some compounds called inactive have numbers as strong as hits
MLL AF4-AF9 inh – inhibitors of human MLL-AF4/AF9 interaction; AlphaScreen, biotin-AF4 peptide binding to FLAG-AF9; inhibition, % at 10 µM; hit rate 0.47% among 350,000;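 active means every replicate reaching a set inhibition limit, whatever the replicate mean, cut at about 25% in these data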;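 further: 0% = plate neutral control median and 100% = total signal loss; the record names both 10 and 1 µM as test concentration; the first replicate is given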
Target sequence (P42568 whole entry, looked up): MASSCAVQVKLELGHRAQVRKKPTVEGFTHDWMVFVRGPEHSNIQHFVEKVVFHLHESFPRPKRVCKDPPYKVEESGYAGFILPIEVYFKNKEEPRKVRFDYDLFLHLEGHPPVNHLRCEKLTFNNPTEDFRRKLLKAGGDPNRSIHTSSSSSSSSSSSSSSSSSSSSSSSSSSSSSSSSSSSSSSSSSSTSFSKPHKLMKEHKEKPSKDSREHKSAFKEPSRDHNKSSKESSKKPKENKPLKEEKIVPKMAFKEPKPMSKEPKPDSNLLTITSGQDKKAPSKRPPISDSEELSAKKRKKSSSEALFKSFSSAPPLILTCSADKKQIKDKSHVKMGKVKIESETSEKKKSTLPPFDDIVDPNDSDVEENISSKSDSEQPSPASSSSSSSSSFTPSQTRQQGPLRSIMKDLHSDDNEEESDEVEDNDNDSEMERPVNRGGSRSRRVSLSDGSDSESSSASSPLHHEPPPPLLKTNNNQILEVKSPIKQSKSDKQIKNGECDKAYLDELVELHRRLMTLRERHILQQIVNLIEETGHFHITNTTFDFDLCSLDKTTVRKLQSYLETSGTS
rRNA inh HTS OD600 – second read-out of rRNA inh HTS, no call of its own (marks repeat the call); OD600 change, %; measured here: OD600 growth;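 optical density of the mix in the first replicate; 0 = DMSO median and -100 = no signal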
rRNA inh HTS RFP – also measured in rRNA inh HTS; calls as there; RFP signal change, %; measured here: RFP humanized mutant strains;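 first replicate; 0 = DMSO median and -100 = no signal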
* hit, by the source's call; i = inactive; / = no result given; + = active, no number; & = joins results of further samples. A portion of the library; the hit share may differ from the screen's.

SMILES	FGF22 binding	rRNA inh HTS	rRNA inh HTS OD600	rRNA inh HTS RFP	MLL AF4-AF9 inh
N#C[C@@H]1[C@@H](c2ccccc2-c2ccccc2)[C@H](CO)N1C(=O)Cc1ccccc1	i	-3	-22	-3.9	-1.2
CC(C)NC(=O)N(C)C[C@H]1Oc2ccc(NC(=O)Nc3ccc4c(c3)OCO4)cc2CC(=O)N([C@H](C)CO)C[C@@H]1C	i	-4	2	-1.7	1.6
Cc1ccc(-c2cnc3c(c2)C(=O)N([C@H](C)CO)C[C@@H](C)[C@H](CN(C)C(=O)Cc2ccccc2)O3)cc1	i	-8	-12	0.4	0.8
C=CCNc1nc(NCCCN2CCCC2=O)c2sc(-c3ccccc3)cc2n1	i	-15	-32	0.5	3.1
O=C(Nc1ccccc1F)N[C@H]1C=C[C@H](CC(=O)N2CCCCC2)O[C@@H]1CO	i	2	4	0.7	-4.2
C[C@@H]1CN([C@@H](C)CO)S(=O)(=O)c2ccc(C#CC3(O)CCCC3)cc2O[C@H]1CN(C)C(=O)c1ccccc1	i	-2	-15	-0.9	0.3
CC1=C(C(=O)N2CCCCCC2)CC(CC(=O)NCc2cccs2)C(=O)N1CCC1=CCCCC1 (centres undefined)	i	-8	-17	4.2	0.3
O=C(C[C@@H]1C=C[C@H](NC(=O)NC2CCCCC2)[C@@H](CO)O1)NCc1ccc(F)cc1	i	2	1	-0.4	-1.6
C[C@@H]1CN([C@H](C)CO)C(=O)c2cc(-c3cccc(C(=O)N(C)C)c3)cnc2O[C@H]1CN(C)C	i	2	11	-2.1	-2.0
CCC(OC(=O)c1ccc(S(C)(=O)=O)c([N+](=O)[O-])c1)C(=O)NC1C2CC3CC(C2)CC1C3 (centres undefined)	i	13	3	3.0	-3.2
Cc1ccc(S(=O)(=O)Nc2ccc3c(c2)C(=O)N([C@@H](C)CO)C[C@@H](C)[C@@H](CN(C)C)O3)cc1	+	5	14	-0.5	-5.5
C[C@@H]1CN([C@@H](C)CO)C(=O)c2cccc(NC(=O)c3ccncc3)c2O[C@H]1CN(C)Cc1ccc(-c2ccccc2)cc1	i	0	-8	0.5	5.1
Cc1c(C(=O)NCc2ccccn2)sc(=O)n1Cc1ccc(-c2ccccc2)cc1	i	-13	-18	5.9	-1.4
COCC(=O)N1CC2(C1)[C@H](c1ccc(-c3ccccc3)cc1)[C@H](CO)N2C(=O)COC	i	0	1	-0.5	2.7
CCCC(=O)Nc1ccc2c(c1)OC[C@H](C)N(C(C)=O)C[C@@H](C)[C@H](OC)CN(C)C2=O	i	0	-4	-2.0	-1.0

Quoted from the listing:
CCC(OC(=O)c1ccc(S(C)(=O)=O)c([N+](=O)[O-])c1)C(=O)NC1C2CC3CC(C2)CC1C3 (centres undefined) in rRNA inh HTS OD600: 3
O=C(Nc1ccccc1F)N[C@H]1C=C[C@H](CC(=O)N2CCCCC2)O[C@@H]1CO in rRNA inh HTS RFP: 0.7

Another view of part of the listing above.
CCC(OC(=O)c1ccc(S(C)(=O)=O)c([N+](=O)[O-])c1)C(=O)NC1C2CC3CC(C2)CC1C3 (centres undefined)
  FGF22 binding = i	rRNA inh HTS = 13	rRNA inh HTS OD600 = 3	rRNA inh HTS RFP = 3.0	MLL AF4-AF9 inh = -3.2

Cc1ccc(-c2cnc3c(c2)C(=O)N([C@H](C)CO)C[C@@H](C)[C@H](CN(C)C(=O)Cc2ccccc2)O3)cc1
  FGF22 binding = i	rRNA inh HTS = -8	rRNA inh HTS OD600 = -12	rRNA inh HTS RFP = 0.4	MLL AF4-AF9 inh = 0.8

Later entries:
SMILES	FGF22 binding	rRNA inh HTS	rRNA inh HTS OD600	rRNA inh HTS RFP	MLL AF4-AF9 inh
COCCNC(=O)C[C@H]1C[C@@H]2c3cc(NC(=O)CN(C)C)ccc3O[C@@H]2[C@@H](CO)O1	i	-1	0	0.5	-3.1
COc1ccc(NC(=O)Nc2ccc3c(c2)CC(=O)N([C@H](C)CO)C[C@H](C)[C@@H](CN(C)Cc2ccc4c(c2)OCO4)O3)cc1	i	0	-7	13	13
Cc1ccc(S(=O)(=O)N(C)C[C@H]2OCCCC[C@H](C)Oc3ccc(NS(=O)(=O)c4cccs4)cc3C(=O)N([C@H](C)CO)C[C@H]2C)cc1	i	-2	-1	-2.2	0.0
O=C(CCN1CCCCC1)N[C@H]1CC[C@H](CCn2cc(-c3ccccc3)nn2)O[C@H]1CO	i	1	1	-2.2	0.2
C[C@H](CO)N1C[C@H](C)[C@@H](CN(C)S(=O)(=O)c2cn(C)cn2)Oc2c(NC(=O)C3CCOCC3)cccc2C1=O	i	3	13	-3.3	-1.5
COc1ccc(CNC(=O)C[C@H]2CC[C@H](NC(=O)c3cccc(F)c3)[C@H](CO)O2)cc1	i	-1	-6	0.5	-1.1
O=C(C[C@H]1CC[C@H]2[C@@H](COC[C@@H](O)CN2S(=O)(=O)c2ccccc2)O1)NCc1ccc(-c2ccccc2)cc1	i	-4	-22	15	5.4
C[C@H](CO)N1C[C@H](C)[C@@H](CN(C)S(=O)(=O)c2ccc(F)cc2)Oc2cc(-c3cccc(F)c3)ccc2S1(=O)=O	i	0	14	-1.7	-4.2
C/C=C/c1cnc2c(c1)C(=O)N([C@H](C)CO)C[C@@H](C)[C@H](CN(C)C(=O)Nc1cccc(OC)c1)O2	i	1	8	-2.7	-3.7
C[C@@H]1CN([C@H](C)CO)C(=O)c2cc(NS(=O)(=O)c3cccs3)ccc2O[C@@H]1CN(C)C(=O)Nc1ccc(F)cc1	i	2	7	-0.8	-6.9
COCCNC(=O)C[C@H]1C[C@@H]2c3cc(NC(=O)c4ccc5c(c4)OCO5)ccc3O[C@@H]2[C@@H](CO)O1	i	-1	1	-0.4	-1.1
C[C@@H]1CN([C@H](C)CO)S(=O)(=O)c2ccc(C#C[C@@H](C)O)cc2O[C@H]1CN(C)Cc1ccccc1	i	-8	-18	15	2.1
CC(=O)c1cccc(-c2ccnc3c2CC(C(=O)Nc2cccc(Oc4ccccc4)c2)O3)c1 (centres undefined)	i	4	-1	1.2	0.0
O=C(C[C@@H]1CC[C@H]2[C@@H](COC[C@H](O)CN2Cc2cccc(C(F)(F)F)c2)O1)NCc1ccc(Cl)cc1	i	-49	-74	-7.3	0.6
Cc1ccc(OCC(=O)OCC(=O)NC2CCS(=O)(=O)C2)cc1C (centres undefined)	i	9	16	0.4	-2.2
COCc1cn(CC[C@@H]2CC[C@H](NC(=O)Cc3cccnc3)[C@H](CO)O2)nn1	i	-2	-2	-1.8	-0.3
C[C@@H]1CN([C@H](C)CO)C(=O)Cc2cc(NC(=O)Cc3ccccc3)ccc2O[C@H]1CN(C)C(=O)NC1CCCCC1	i	-4	-14	0.0	-19
CC(C)C[C@@H]1COc2cc(NC3CC3)ccc2S(=O)(=O)N1	i	9	12	0.8	-0.8
O=C(C[C@@H]1CC[C@@H](NC(=O)Nc2cc(F)ccc2F)[C@H](CO)O1)Nc1ccc(-c2ccccc2)cc1	i	-7	-5	-0.6	-13
O=S1(=O)CC(N2CC=CC2)CN1Cc1cn(Cc2ccc(Cl)cc2)nn1 (centres undefined)	i	-9	1	2.5	3.4
CC(C)NC(=O)Nc1ccc2c(c1)C(=O)N([C@H](C)CO)C[C@H](C)[C@H](CN(C)S(=O)(=O)c1ccc(F)cc1)OCCCC[C@@H](C)O2	i	0	-4	-3.8	-1.9
CCCNC(=O)Nc1ccc2c(c1)OC[C@@H](C)NC[C@H](C)[C@H](OC)CN(C)C2=O	i	2	1	-1.8	-0.6
Cc1cc(C)cc(NC(=O)C2CCCCN2S(=O)(=O)c2ccccc2)c1 (centres undefined)	i	4	-29	1.2	2.2
C[C@]12Cc3ccccc3C1CC1=N[C@@H](c3ccc(C(F)(F)F)cc3)O[C@@]13C[C@@H]2C(=O)N3Cc1ccncc1 (some centres undefined)	/	-3	-14	3.6	2.2
CCc1nc2ccc(C(=O)Nc3ccc(OC)c(OC)c3)cn2c1N(C)Cc1ccc(N(C)C)cc1	i	-5	-4	-3.6	19
CN(C)C(=O)C[C@@H]1CC[C@H]2[C@@H](COC[C@H](O)CN2C(=O)C2CC2)O1	i	-2	-4	-4.6	-0.9
Cc1ccc(S(=O)(=O)NCC[C@H]2CC[C@@H](NC(=O)NC(C)C)[C@H](CO)O2)cc1	i	5	6	-1.3	-16
CC(=O)N(C)C[C@H]1Oc2cc(C3=CCCC3)ccc2S(=O)(=O)N([C@@H](C)CO)C[C@H]1C	i	-1	0	-1.2	0.3
Nc1nc2c(ncn2[C@@H]2O[C@H](CNCC3=Cc4cc(O)ccc4OC3)[C@@H](O)[C@H]2O)c(=O)[nH]1	i	-4	12	4.9	0.0
O=C(Nc1ccc2c(c1)OCO2)N[C@H]1CC[C@H](CCNC(=O)C2CC2)O[C@H]1CO	i	2	9	-1.7	-2.7
C[C@H](CO)N1C[C@H](C)[C@@H](CN(C)S(C)(=O)=O)Oc2ccc(NC(=O)Nc3ccc(F)cc3)cc2CC1=O	i	2	-2	0.0	1.8
COc1cccc(CNC(=O)[C@@H]2[C@@H](CO)[C@@H]3Cn4c(cccc4=O)[C@H]2N3C(=O)C2CC2)c1	i	4	3	-2.0	-13
Cc1ccc(S(=O)(=O)N[C@@H]2CC[C@H](CCNC(=O)Nc3ccc(Cl)cc3)O[C@H]2CO)cc1	i	-17	-31	17	12
O=C(C[C@@H]1C[C@H]2c3cc(NS(=O)(=O)c4ccc(F)cc4)ccc3O[C@H]2[C@H](CO)O1)NC1CCCCC1	i	-6	-18	2.2	2.7
COc1ccc(S(=O)(=O)Nc2ccc3c(c2)C(=O)N([C@H](C)CO)C[C@H](C)[C@@H](CN(C)S(=O)(=O)c2c(C)noc2C)OCCCC[C@H](C)O3)cc1	i	-5	-14	1.0	-0.6
C[C@H](CO)N1C[C@H](C)[C@H](CN(C)Cc2cccnc2)Oc2ncc(-c3ccc(C#N)cc3)cc2C1=O	i	0	4	-0.1	-7.5
N#C[C@H]1[C@@H](c2ccccc2)[C@@H](CO)N1C(=O)c1cc(Cl)cc(Cl)c1	i	3	14	-3.8	-1.9
COCC(=O)N1CC2(CN(C(=O)c3cccnc3)C2)c2c([nH]c3cc(OC)ccc23)[C@@H]1CO	i	4	5	-1.9	-4.6
CC(C)c1ccc(NC(=O)C2Cc3c(-c4cccc(F)c4)ccnc3O2)cc1 (centres undefined)	i	0	-9	-1.6	-2.2
O=C(C[C@H]1C[C@@H]2c3cc(NC(=O)NC4CCCC4)ccc3O[C@@H]2[C@H](CO)O1)NCCN1CCCCC1	i	5	22	-3.4	4.4
COc1ccc(C#Cc2ccc3c(c2)O[C@@H](CN(C)C(=O)Nc2cccc(OC)c2)[C@H](C)CN([C@@H](C)CO)S3(=O)=O)cc1	i	20&7	17&21	11&-0.1	-1.3&-3.6
COc1ccc2c3c([nH]c2c1)[C@@H](CO)N(C(C)=O)CC31CN(C(=O)CN2CCOCC2)C1	i	5	13	-0.8	-1.5
C#CCN(C[C@@H]1[C@@H](OC(=O)NCc2ccco2)[C@@H](OC(=O)NCc2ccco2)CN(C(=O)OC(C)C)N1C(=O)OC(C)C)S(=O)(=O)c1ccc(C)cc1	i	0	-3	-4.5	1.1
CCCNC(=O)C[C@H]1CC[C@@H]2[C@H](COC[C@H](O)CN2CC2CCCCC2)O1	i	2	-5	-0.3	-2.2
C[C@H](CO)N1C[C@H](C)[C@H](CN(C)C(=O)Cc2cccnc2)Oc2ncc(/C=C/c3ccccc3)cc2C1=O	i	-1	-2	0.8	-0.3
CCCN1C[C@H](C)[C@H](OC)CN(C)C(=O)c2cc(NC(=O)Nc3ccccc3F)ccc2OC[C@H]1C	i	1	-2	1.0	-0.2
Cc1noc(C)c1S(=O)(=O)N(C)C[C@H]1OCCCC[C@H](C)Oc2ccc(NS(=O)(=O)c3ccccc3)cc2C(=O)N([C@@H](C)CO)C[C@@H]1C	i	-1	2	4.5	-2.9
Cc1ccccc1NC(=O)c1cc(-c2ccco2)nc2ccccc12	i	0	7	9.1	3.4
C[C@@H](O)C#Cc1ccc([C@@H]2[C@H](CO)N3CCCCN(C(=O)c4ccncc4)C[C@@H]23)cc1	i	4	13	-4.9	1.5
COc1ccc(-c2ccc([C@@H]3[C@@H](C#N)N(C(=O)c4cccc(F)c4)[C@H]3CO)cc2)cc1	i	0	9	-3.4	-4.2
CCCC(=O)Nc1ccc2c(c1)OC[C@@H](C)N(C(=O)CC)C[C@@H](C)[C@@H](OC)CN(C)C2=O	i	-2	-3	-0.1	-1.8
CCCNC(=O)C[C@H]1C[C@H]2c3cc(NC(=O)Nc4ccc(F)cc4)ccc3O[C@H]2[C@@H](CO)O1	i	6&3	9&6	4.5&3.8	-2.7

A different layout for some results above.
structure,FGF22 binding,rRNA inh HTS,rRNA inh HTS OD600,rRNA inh HTS RFP,MLL AF4-AF9 inh
CCCN1C[C@H](C)[C@H](OC)CN(C)C(=O)c2cc(NC(=O)Nc3ccccc3F)ccc2OC[C@H]1C,i,1,-2,1.0,-0.2
Cc1noc(C)c1S(=O)(=O)N(C)C[C@H]1OCCCC[C@H](C)Oc2ccc(NS(=O)(=O)c3ccccc3)cc2C(=O)N([C@@H](C)CO)C[C@@H]1C,i,-1,2,4.5,-2.9
Cc1ccccc1NC(=O)c1cc(-c2ccco2)nc2ccccc12,i,0,7,9.1,3.4
C[C@@H](O)C#Cc1ccc([C@@H]2[C@H](CO)N3CCCCN(C(=O)c4ccncc4)C[C@@H]23)cc1,i,4,13,-4.9,1.5
COc1ccc(-c2ccc([C@@H]3[C@@H](C#N)N(C(=O)c4cccc(F)c4)[C@H]3CO)cc2)cc1,i,0,9,-3.4,-4.2
